Ecoli growth – E. coli growth inhibition; Escherichia coli growth, OD600, 23 h; hits give low values; OD600 absorbance (concentration not given with the values); 0.21% of 330,000 active; AID 1053175;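 active means OD600 absorbance below the run mean of sample wells minus 3.6 SD, in any replicate, cut at about 0.56 in these data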;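 further: stock transfer was 300 nL into about 60 µL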
Starred values were filed as active, the others as inactive; & = joins results of further samples. The list is partial (hit frequency here may not be typical).

SMILES	Ecoli growth
COC(=O)[C@@]12CCCN1C(c1ccc(-c3ccc(Cl)c(Cl)c3)c(OC)c1)C1C(=O)N(C)C(=O)C12 (some centres undefined)	0.73
CN(C)C1=NCC(Cc2ccccc2)N1CCCCc1ccccc1 (centres undefined)	0.696
Cc1noc(C)c1NC(=O)N(C)CC1Oc2c(NC(=O)Nc3ccccc3)cccc2C(=O)N(C(C)CO)CC1C (centres undefined)	0.684
COc1ccc(C2CC(c3ccccc3)Oc3cc(OC)c(OC)c(OC)c32)cc1 (centres undefined)	0.725&0.747
CCOC(=O)C1C2COc3ccccc3C2N2C(=O)c3c(C)cc(C)cc3NC(=O)[C@@]12C (some centres undefined)	0.69
CC(O)C1CNC(=O)C(=O)N1CCc1cc(C(F)(F)F)cc(C(F)(F)F)c1 (centres undefined)	0.67
O=S1(=O)CCOCC(CC2CCCCC2)N1Cc1ccc(Cl)cc1 (centres undefined)	0.699
O=C(CN1C(=O)C(=Cc2ccc(C(F)(F)F)cc2)Sc2ccccc21)NCc1ccco1	0.715
COc1cc(C2CC=C(C(=O)O)CN2S(=O)(=O)c2ccc(C)cc2)cc(OC)c1OC (centres undefined)	0.69
COC(=O)[C@@]1(Cc2ccc(F)cc2)C2C(CC(=O)C2CC(=O)C(=O)N(C)C)CN1C(=O)c1ccccc1 (some centres undefined)	0.676
O=C(CC1CC=CCC(NC(=O)OCC2c3ccccc3-c3ccccc32)C(=O)OC(c2ccccc2)CNC1=O)NC(CO)Cc1ccccc1 (centres undefined)	0.733&0.688
C#Cc1ccc(C2C=C(C(=O)Nc3ccccc3)OC(OCc3ccc(CO)cc3)C2)cc1 (centres undefined)	0.698
COCC=CC1=CC2=CC(=O)C(C)(OC(=O)C3CCCC3)C(=O)C2=CO1 (centres undefined)	0.683
CC1CN(C(=O)C=Cc2ccccc2[N+](=O)[O-])CC(C)O1 (centres undefined)	0.703
CCOC(=O)C1C2COc3ccccc3C2N2C(=O)c3cc(F)c(F)cc3NC(=O)[C@@]12C (some centres undefined)	0.692
O=C(O)C=CC(=O)c1ccc2c(c1)CCc1ccccc1-2	0.583
C=C[C@@]1(C)CCC(C(C)=CC=CC(C)(C)O)CC1C(=C)C (some centres undefined)	0.676
NC(=O)C(CC(=O)O)NC(=O)C1CCCNc2c(I)cc([N+](=O)[O-])cc2C(=O)NC(CO)C(=O)NC(Cc2ccc(O)cc2)C(=O)N1 (centres undefined)	0.704
Cc1ccc(S(=O)(=O)N2C(c3cccc(Cl)c3)CC=C(C(=O)O)C2c2ccc(F)cc2)cc1 (centres undefined)	0.671
COC(=O)[C@@]12CCCCN1C(c1ccc(-c3ccc(C(C)=O)cc3)c(OC)c1)C1C(=O)N(C)C(=O)C12 (some centres undefined)	0.699
O=C(CC1C(=O)N(CCc2ccccc2)CC1Cc1ccccc1)Nc1ccccc1 (centres undefined)	0.693
C#CCOCCOCCOCCNc1nc(N2CCN(C(=O)C(C(C)CC)n3cc(C(N)CC(C)C)nn3)CC2)nc(N2CCN(C(=O)C(C(C)CC)n3cc(C(N)CC(C)C)nn3)CC2)n1 (centres undefined)	0.676
CC(=O)OC1C(=O)[C@]2(C)C(O)CC3OC[C@@]3(OC(C)=O)C2C(OC(=O)c2ccccc2)[C@]2(O)CC(OC(=O)C(O)C(NC(=O)c3ccccc3)c3ccccc3)C(C)=C1C2(C)C (some centres undefined)	0.685&0.612
COc1ccc(C2C=CCN(S(=O)(=O)c3ccc(C)cc3)CC(=O)N2Cc2ccc(F)cc2)cc1 (centres undefined)	0.685
NC(CO)c1nnc(C(CC(=O)O)NC(=O)C2CCNCC2)o1 (centres undefined)	0.668
O=C1CCC(O)CCN1CCSc1ccc(Br)cc1 (centres undefined)	0.615
COC(=O)C(Cc1ccccc1)NC(=O)Cn1ccc(NC(=O)OCc2ccccc2)nc1=O (centres undefined)	0.647
COC(=O)C1C[C@@]2(O)C(O)C(O)C(O)CC2N1Cc1cccc2ccccc12 (some centres undefined)	0.665
CN1CC2C3C(=O)N(C)C(=O)C3[C@](Cc3ccccc3)(C1=O)N2C(=O)c1ccccc1 (some centres undefined)	0.688
COc1ccc2c(c1)OCC1C2N2C(=O)C(C)NC(=O)[C@@]2(C)C1c1ccccc1 (some centres undefined)	0.677&0.703
C#CCOCCOCCOCCNc1nc(N2CCN(C(=O)C(CCCCN)n3cc(C(N)CC(N)=O)nn3)CC2)nc(N2CCN(C(=O)C(CC(N)=O)n3cc(C(N)C(C)CC)nn3)CC2)n1 (centres undefined)	0.712
C#CCOCCOCCOCCNc1nc(N2CCN(C(=O)C(Cc3ccc(O)cc3)n3cc(CCO)nn3)CC2)nc(N2CCN(C(=O)C(C(C)C)n3cc(CCO)nn3)CC2)n1 (centres undefined)	0.714
CCCNC(=O)OCC1OC(CCON=CCC2C=CC(OC(C)=O)C(COC(C)=O)O2)C=CC1Oc1ccc(OC)cc1 (centres undefined)	0.675
C#CCOCCOCCOCCNc1nc(N2CCN(C(=O)C(CCCCN)n3cc(C(N)C(C)CC)nn3)CC2)nc(N2CCN(C(=O)C(CCCN=C(N)N)n3cc(C(N)C(C)CC)nn3)CC2)n1 (centres undefined)	0.675
CC1OC(Oc2c(-c3ccc(O)c(O)c3)oc3cc(O)cc(O)c3c2=O)C(O)C(O)C1O (centres undefined)	0.684
CCCCn1nc2cc(C(=O)NCC3CCCO3)ccc2c1OCC (centres undefined)	0.682
C=C1CCN(C(Cc2ccccc2)C(=O)N2CCOCC2)S(=O)(=O)c2ccccc21 (centres undefined)	0.708
CN1CC2C3C(=O)N(C)C(=O)C3[C@](C)(C1=O)N2C(=O)c1ccc(F)cc1 (some centres undefined)	0.672
CCN1CC2C3C(=O)N(C)C(=O)C3[C@](C)(C1=O)N2C(=O)c1ccc(C(F)(F)F)cc1 (some centres undefined)	0.687
COC(=O)[C@@]12CCCCN1C(c1ccc(-c3ccc(F)cc3)cc1)C1C(=O)N(C)C(=O)C12 (some centres undefined)	0.712&0.694
CCOC(=O)C1=CN2CCCCC2CC1=O (centres undefined)	0.65
COC(=O)C1=CC(C(=O)OC)C2C3=C(C(=O)[C@]2(C)NC(=O)c2ccccc2)C(C)n2c(=O)n(C)c(=O)n2C3C1 (some centres undefined)	0.65
COc1ccc(SCCN2CCC(NC(=O)OCc3ccccc3)CCC2=O)cc1 (centres undefined)	0.637
NC(=O)C1CCCCNc2c(F)cc([N+](=O)[O-])cc2C(=O)NC(CC(=O)O)C(=O)NC(CCC(=O)O)C(=O)N1 (centres undefined)	0.685
CC1CN(C(C)CO)C(=O)c2cccc(NC(=O)C3CCCCC3)c2OC1CN(C)C(=O)Nc1ccccc1 (centres undefined)	0.655
COCC=CC1=CC2=CC(=O)C(C)(OC(=O)c3cnc4ccccc4n3)C(=O)C2=CN1Cc1ccc(OC)cc1 (centres undefined)	0.691
CC(C)CCCN1C(Nc2ccccc2)=NCC1CC(C)C (centres undefined)	0.685
O=C1NCC(c2ccccc2)N(CC2CCCCC2)C1=O (centres undefined)	0.661
N#CC=C1NC(=O)c2ccccc2S1	0.674
COc1ccc(C=C(C(=O)N2CCCCC2C(=O)O)c2ccc(OC)c(OC)c2)cc1 (centres undefined)	0.689
CCCCC(=O)OC1CCC2C3CCc4cc(O)ccc4C3CC[C@]12C (some centres undefined)	0.673
CCOc1ccc(C=C2C(=N)N3OC(C)=CC3=NC2=O)cc1OC	0.746
CCOC1OC(C(N)=O)=CC(c2csc3ccccc23)C1CCCO (centres undefined)	0.605
CCOC(=O)CN1C(=O)NC(c2ccccc2)C(C(C)=O)=C1C (centres undefined)	0.671
CCCC(CNC(CNC)C(C)CC)NCCc1cc(C(F)(F)F)cc(C(F)(F)F)c1 (centres undefined)	0.619
COC(=O)C1CCC(C)C(c2ccc(C)cc2)N1C(=O)c1ccc(C=NOCC(O)C2OC3OC(C)(C)OC3C2O)cc1 (centres undefined)	0.709
CC(CCN1C(Nc2ccccc2)=NCC1C)c1ccccc1 (centres undefined)	0.683
COc1cc(C=CC(=O)OCC(=O)Nc2ccccc2Cl)cc(OC)c1OC	0.702
CCC(C)C1CNCCN1CC1(c2ccccc2)CC1 (centres undefined)	0.684
C=C1C(O)C2O[C@]3(CCC(C=CC(C)C4CC(C)=CC5(OC(C[C@@](C)(O)CO)CCC5O)O4)O3)CCC2OC1C(O)CC(C)C1OC2(CCCCO2)CCC1C (some centres undefined)	0.711
New compounds follow:
SMILES	Ecoli growth
CC1CN(C(C)CO)C(=O)Cc2cc(NC(=O)NC3CCCCC3)ccc2OC1CN(C)S(=O)(=O)c1ccccc1 (centres undefined)	0.705
COc1cccc2c1C(=O)C[C@]1(CCCCC1C)O2 (some centres undefined)	0.68
CC(C)(C)OC(=O)NCCCCC(NC(=O)c1nc[nH]c1C(=O)NCC(=O)OCc1ccccc1)C(=O)OC(C)(C)C (centres undefined)	0.712
CC(NS(=O)(=O)C=Cc1ccccc1)c1ccccc1 (centres undefined)	0.701
COc1ccc(Br)cc1C1C2C=CCC(C)C2C(=O)N1Cc1ccccc1 (centres undefined)	0.64
COC(=O)[C@@]12CCCCN1C(c1ccc(-c3ccccc3)c(OC)c1)C1C(=O)N(C)C(=O)C12 (some centres undefined)	0.661
CCC(=O)N1CC2(CC(c3cccc(NC(=O)CC(c4ccccc4)c4ccccc4)c3)=NO2)CC1C(N)=O (centres undefined)	0.644
O=C(CC1CC=CCCC(Cc2ccc(F)cc2)C(=O)OCC(Cc2ccccc2)NC1=O)NCCO (centres undefined)	0.708
COC(=O)C1=C(C(=O)OC)C2N(Cc3ccccc3)c3ccccc3[C@@]23CC(C(=O)OC)N(C(=O)CC(C)C)C3=N1 (some centres undefined)	0.668
C=CCC(CC(=O)NC(CO)Cc1ccccc1)C(=O)NC(COC(=O)C(CC=C)Cc1ccc(F)cc1)C(C)(C)C (centres undefined)	0.671&0.683
CC1CC2C3CCC4=CC(=O)C=C[C@]4(C)[C@@]3(F)C(O)C[C@]2(C)[C@@]1(O)C(=O)COP(=O)(O)O (some centres undefined)	0.699
CCCSc1ccc(C2C3C(=O)N(C)C(=O)C3[C@]3(C(=O)OC)CCCN23)cc1OC (some centres undefined)	0.694
O=C1CN(C(=O)C=Cc2cccc(Cl)c2)c2ccccc2N1	0.704
C#CCOCCOCCOCCNc1nc(N2CCN(C(=O)C(Cc3ccc(O)cc3)n3cc(C(N)CC(C)C)nn3)CC2)nc(N2CCN(C(=O)C(C(C)CC)n3cc(C(N)Cc4ccc(O)cc4)nn3)CC2)n1 (centres undefined)	0.616
C=CCN1c2ccccc2[C@]23CC(C(=O)OC)N(C(=O)CC(C)C)C2=NC(C(=O)OC)=C(C(=O)OC)C13 (some centres undefined)	0.741
CN1CCN(C(=O)C2=CC(c3coc4ccccc4c3=O)CC(OCc3ccc(CO)cc3)O2)CC1 (centres undefined)	0.721
COC(=O)C1C[C@@]2(O)C(O)C(O)C(O)CC2N1CC=Cc1ccccc1 (some centres undefined)	0.609&0.69
COc1ccc(C2C=CCN(C(=O)NC34CC5CC(CC(C5)C3)C4)CC(=O)N2Cc2ccc(F)cc2)cc1 (centres undefined)	0.674
CCOC(=O)CC1c2ccc(C(F)(F)F)cc2S(=O)(=O)N1C(C)(C)C (centres undefined)	0.672
CCC=CC(=O)N1CC2(CC(c3cccc(NC(=O)c4ccccc4)c3)=NO2)CC1C(N)=O (centres undefined)	0.679
CCCCC1CCCO[C@@](C(=O)NCc2cc(C)n(C)n2)(C(F)(F)F)C1 (some centres undefined)	0.649
COC(=O)CC1c2ccccc2S(=O)(=O)N1C(C)C (centres undefined)	0.669
COc1ccc(S(=O)(=O)N(C)CC2Oc3ccc(NS(=O)(=O)c4ccc(F)cc4)cc3C(=O)N(C(C)CO)CC2C)cc1 (centres undefined)	0.649
CCOC(=O)C1C2COc3ccc(Br)cc3C2N2C(=O)N(c3ccc(Br)cc3)C(=O)[C@]12C (some centres undefined)	0.723

Part of the list above, field by field.
COc1ccc(Br)cc1C1C2C=CCC(C)C2C(=O)N1Cc1ccccc1 (centres undefined)
  Ecoli growth = 0.64

COC(=O)[C@@]12CCCCN1C(c1ccc(-c3ccccc3)c(OC)c1)C1C(=O)N(C)C(=O)C12 (some centres undefined)
  Ecoli growth = 0.661

CCC(=O)N1CC2(CC(c3cccc(NC(=O)CC(c4ccccc4)c4ccccc4)c3)=NO2)CC1C(N)=O (centres undefined)
  Ecoli growth = 0.644

O=C(CC1CC=CCCC(Cc2ccc(F)cc2)C(=O)OCC(Cc2ccccc2)NC1=O)NCCO (centres undefined)
  Ecoli growth = 0.708

Random excerpt: two compounds from above, in no set order.
SMILES	Ecoli growth
CCCCC1CCCO[C@@](C(=O)NCc2cc(C)n(C)n2)(C(F)(F)F)C1 (some centres undefined)	0.649
CCC=CC(=O)N1CC2(CC(c3cccc(NC(=O)c4ccccc4)c3)=NO2)CC1C(N)=O (centres undefined)	0.679

Carrying on:
SMILES	Ecoli growth
C#CCOCCOCCOCCNc1nc(N2CCN(C(=O)C(CCC(=O)O)n3cc(C(N)CC(C)C)nn3)CC2)nc(N2CCN(C(=O)C(CCC(=O)O)n3cc(C(N)C(C)CC)nn3)CC2)n1 (centres undefined)	0.644
C#CCOCCOCCOCCNc1nc(N2CCN(C(=O)C(CC(N)=O)n3cc(C(N)CC(N)=O)nn3)CC2)nc(N2CCN(C(=O)C(CCCN=C(N)N)n3cc(C(N)C(C)CC)nn3)CC2)n1 (centres undefined)	0.708
[O-][N+](=Cc1ccccc1)c1ccccc1	0.687&0.653
CSC(=C[N+](=O)[O-])Nc1ccc(C)cc1	0.686
NC(=NOC(=O)c1cccc(Cl)c1)c1cccnc1	0.713
CC(C)C1S/C(=N/N=Cc2cccs2)NC1=O (centres undefined)	0.72
CCOC1OC(C(N)=O)=CC(c2ccccc2)C1CCCO (centres undefined)	0.686&0.702
CC1CCC(CN2C(Nc3ccccc3)=NCC2C)CC1 (centres undefined)	0.678
